# RN4220 kill: kills Staphylococcus aureus RN4220 | inhibition, % (test concentration not listed) | AID 1259311 | hit rate 0.33% among 330,000 | S. aureus RN4220 growth, OD600, 16 h;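 active = z-score of -3 or lower and OD600 up to 0.18 on both plates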;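 note: plate controls were untreated cells for no effect and reference antibiotic for full effect; stock transfer was 100 nL into about 80 µL; one replicate is shown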
# BJeLR viability: kills HRASV12-expressing BJeLR cells | BJeLR (HRASV12) viability, CellTiter-Glo ATP luminescence, 48 h; reference of the scale not given here | AID 1554 | inhibition, % (concentration not given with the values) | hit rate 0.17% among 300,000;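 active = replicate mean above 50%; inconclusive = above 50% but judged a plate artefact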;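 note: 50 nL library stock added to about 25 µL; numbers are from one replicate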
# PrP 5UTR inh: inhibition of PrP 5' UTR reporter expression. hit rate 0.35% among 340,000. cell-based PrP 5' UTR mRNA reporter, plate reader. inhibition, % (test concentration not listed). AID 488862;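 active = every replicate at 50% or more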;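 note: 0 = median of the neutral control wells; tested in H4 reporter cells; numbers are from one replicate; inactives centre near -14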
# Bead autofluor: flagged as autofluorescent in microsphere protease counterscreen. compound autofluorescence counterscreen, microsphere flow cytometry; hits give high values. fluorescence intensity (concentration not given with the values). hit rate 3.1% among 360,000. AID 624483;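 active = at least 3 SD above the mean of all compounds, about 16000 in these data; inconclusive = too few beads counted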;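 note: 100 nL of 1 mM stock went into each well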
# ugtP null kill: compounds lethal to S. aureus RN4220 ugtP deletion mutant | OD600 growth, 16 h; some inactives read as strong as hits | growth inhibition, % (concentration not given with the values) | hit rate 0.54% among 330,000 | AID 1259309;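 active = z-score under -3 and OD600 up to 0.15 on both plates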;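 note: plate controls were untreated wells for no effect and antibiotic for full effect; wells of about 80 µL received 100 nL stock; the first replicate is given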
# Mtb hypoxia rep: Mtb hypoxia fluorescent reporter inhibition; hit rate 0.1% among 300,000; M. tuberculosis hypoxia-regulated fluorescent reporter, fluorescence; AID 1159583; fluorescence inhibition, % (test concentration not listed);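 active = 35 to 45% if threefold the growth effect, above 45% if 1.5-fold the growth effect; inactive = the rest, general growth blockers included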;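 note: wells of about 50 µL received 100 nL stock; 0% = vehicle wells and 100% = reference inhibitor wells; whole bacteria with a GFP reporter of the hypoxia response; strong numbers were not always called active; many hits fall short of the cut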
# Mtb hypoxia rep growth: also measured in Mtb hypoxia rep; calls as there; growth inhibition, %; measured here: M. tuberculosis growth (absorbance);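 0% = vehicle and 100% = reference antibiotic; read after six days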
# The depositor's hits bear a star; ? = inconclusive; · = no result given. This is a random part of the collection; about 4% have a hit in one of these screens.
SMILES,RN4220 kill,BJeLR viability,PrP 5UTR inh,Bead autofluor,ugtP null kill,Mtb hypoxia rep,Mtb hypoxia rep growth
S=C(NCc1ccccc1)N1CCc2ccccc2C1,2.9,4.1,-16.1,8645,14.9,4.5,12.5
c1ccc2c(c1)nc1n2C2(N3CCOCC3)CCCC2C1N1CCOCC1 (configuration not stated),-2.0,·,-4.7,20620*,-6.9,-7.1,-0.8
C=CCn1c(SCC(N)=O)nnc1-c1cc(Br)ccc1O,6.1,-1.2,-36.3,21322*,-5.2,2.3,19.3
CCN(CC)C(=O)[C@H]1CC(CC(=O)NCCCn2ccnc2)C(=O)N2CCc3c([nH]c4ccc(OC)cc34)[C@]12C (some centres not stated),2.6,·,-8.5,3947,4.5,-12.6,3.4
CC1CCc2c(sc3ncn(CC(=O)N=Nc4c(O)[nH]c5ccccc45)c(=O)c23)C1 (configuration not stated),3.8,-0.5,6.4,3427,16.0,1.6,4.0
Cc1cc(C(=O)Nc2ccccc2Cl)c2ccccc2n1,1.4,-1.9,-34.8,3115,11.6,11.8,9.9
COc1cc(NS(=O)(=O)c2ccc(N/C=C\C(=O)c3ccc(C)cc3)cc2)nc(OC)n1,-5.1,-13.3,-3.7,4832,24.3,·,·
CCN(CC(=O)N1CCOCC1)S(=O)(=O)c1cc(Cl)ccc1Cl,1.6,-11.0,-20.7,6061,3.4,4.7,8.8
CCn1c(SCC(=O)Nc2ccccc2)nnc1-c1cccs1,4.4,2.0,1.9,4223,-1.1,1.4,0.6
Nc1[nH]ncc1S(=O)(=O)c1ccccc1,-0.8,-0.5,·,3703,13.1,-2.4,6.1
O=C(c1ccc(S(=O)(=O)Nc2ccccc2)cc1)N1CCC1,0.2,-2.4,-7.9,6703,-0.2,4.5,10.3
CCOC(=O)NC(Nc1ccc(S(N)(=O)=O)cc1)(C(=O)OCC)C(F)(F)F (configuration not stated),4.2,2.9,8.0,4237,-0.9,·,·
O=C(COc1ccc(Cl)cc1Cl)N/N=C/c1ccc(OC2OC(CO)C(O)C(O)C2O)cc1 (configuration not stated),·,-27.2,-7.4,?,·,·,·
Clc1ccc2nc(-c3ccccc3)c(CN3CCOCC3)n2c1,3.4,-3.9,-5.6,23584*,1.7,9.8,8.3
Clc1ccc(C(c2nnnn2C2CCCCC2)N(Cc2cccnc2)Cc2ccco2)cc1 (configuration not stated),-2.9,8.8,-26.7,2861,-3.0,13.7,12.2
O=C(CSc1ccccc1C(=O)N1CCCCC1)NCC1CCCCC1,4.0,0.0,-22.2,6202,2.0,6.8,4.9
CCN(CC)C(=S)SCC(=O)Nc1nc(=O)c2ccccc2s1,-0.5,0.9,4.0,2108,5.1,16.8,9.2
CC(=NNC(=O)c1nn(C)cc1Cl)c1ccncc1,0.6,·,·,·,-1.3,-10.9,-8.1
OC[C@H]1OC(Nc2ccc(N=Nc3ccccc3)cc2)[C@@H](O)[C@@H](O)[C@@H]1O (some centres not stated),10.7,-4.7,-53.2,3685,2.2,-6.3,-0.7
COc1ccc(OC)c(CCNC(=O)Cc2ccc(NC3=NC4CS(=O)(=O)CC4S3)cc2)c1 (configuration not stated),-3.8,8.0,-36.6,5366,-3.0,7.7,9.9
O=C(Nc1cccc(F)c1)C1CCCN(c2cnccn2)C1 (configuration not stated),3.6,1.8,-10.8,5682,0.5,1.1,2.0
Clc1ccc(-c2nnc3n2CCCS3)cc1,6.4,5.4,-17.4,9425,7.5,12.8,5.0
CN(CCO)CCOCCOc1cccc2ccccc12,3.9,-6.4,5.9,3376,-1.4,0.3,3.5
C(=C\c1ccco1)/c1nc2ccccc2[nH]1,4.4,31.2,-80.2,2651,-2.9,18.7,9.7
N#CCc1cnc2ccccc2n1,1.9,0.9,-12.2,3947,1.5,-3.1,-2.0
O=[N+]([O-])c1cc(F)c(N2CCOCC2)cc1N1CCCCC1,8.4,14.4,-46.8,24982*,-0.8,12.0,5.9
Cc1cc(C)c(C#N)c(SCC(O)COc2ccc(Br)cc2)n1 (configuration not stated),7.6,-7.8,-14.2,3794,3.3,2.3,6.6
O=C1CN2CCC1C/C2=C\c1ccnc2c(Cl)cccc12 (configuration not stated),2.0,-5.3,-15.7,5135,6.6,1.7,2.6
NC(CSCc1cccc(Br)c1)C(=O)O (configuration not stated),·,2.6,1.8,4434,·,·,·
Cn1c(N/N=C2\CCCc3ccccc32)nc2c1c(=O)n(Cc1ccc(F)cc1)c(=O)n2C,·,3.0,-14.4,2135,·,·,·
Nc1nc(NCCO)nc(NCC2CCCO2)c1[N+](=O)[O-] (configuration not stated),1.9,-2.2,4.3,7115,3.1,9.9,5.2
COc1ccc(OC2C(=O)N(Cc3ccc(F)cc3)C2c2ccc(OC)c(OC)c2)cc1 (configuration not stated),7.8,5.6,-31.8,7309,8.0,12.4,3.8
CSC1=NC(C(Cl)(Cl)Cl)N=C(c2ccc(C)cc2)N1 (configuration not stated),3.3,56.0*,4.4,4007,3.1,8.9,9.0
CCn1c(C)nc2cc(C(=O)N/N=C(\C)c3ccc(N4CCOCC4)cc3)ccc21,·,-0.2,-8.7,3705,·,·,·
N/C(=N\OC(=O)c1ccco1)c1ccc(Cl)cc1,2.3,-5.9,-67.1,2166,8.8,1.0,-2.7
O=C(Cn1cc([N+](=O)[O-])cn1)NCc1ccccc1,4.8,0.3,-29.9,4333,16.0,2.1,5.5
CCOC(=O)N1CCC(N(CCN(C)C)C(=S)Nc2cc(Cl)ccc2C)CC1,3.3,5.7,-12.5,4904,2.1,10.5,7.8
CC(Oc1ccc2c(-c3ccccc3)cc(=O)oc2c1)C(=O)NCc1ccccn1 (configuration not stated),-1.0,-3.1,-7.7,4104,-0.6,·,·
COc1ccc(CC(=O)Nc2ccc(-c3nnc(-c4ccccc4)o3)cc2)cc1OC,5.6,-13.2,-31.1,9939,-6.3,6.2,8.8
Cc1ccc(C)c(N(C)S(=O)(=O)c2ccc3[nH]cc(C(=O)NCCN4CCOCC4)c(=O)c3c2)c1,-1.8,7.8,-7.6,7147,-12.4,6.6,10.5
COc1cccc(C(=O)NCCCNC(=O)c2cccc(OC)c2)c1,3.4,-7.5,-8.2,3770,4.0,1.5,12.4
CCc1cccc(C)c1NC(=O)COC(=O)Cn1c(C)csc1=O,4.0,-15.9,-14.0,4464,15.5,5.5,-5.9
O=S(=O)(Nc1ccc2c(c1)oc1ccccc12)N1CCCC1,-6.3,6.8,-27.5,4295,39.8,·,·
C/C(N)=C(/C#N)C(=O)COC(=O)c1cc(-c2ccc(C)cc2)nc2ccccc12,0.1,6.2,-29.3,2404,-3.2,12.5,8.4
COC(=O)Nc1ccc(S(=O)(=O)Nc2cc(C(F)(F)F)c[nH]c2=O)cc1,5.8,0.2,-12.9,3669,-12.8,12.0,0.1
COc1ccccc1-c1noc(CCC(=O)Nc2ccccc2Cl)n1,0.4,9.3,-33.2,11502,-0.6,-3.5,2.0
COC(=O)Cn1ncn2cccc2c1=O,-14.8,-1.9,-20.2,2993,-5.4,2.5,1.0
O=S(=O)(Cc1ccccc1)N1CCCCC1,5.3,-13.0,-4.6,3305,-3.1,7.9,4.4
COc1ccc(CN2C(=O)c3ccccc3C(/C=N\OCc3ccc(F)cc3)C2=O)cc1 (configuration not stated),·,-2.2,-26.4,2597,·,·,·
Nc1ccccc1CNc1nc(NCCO)nc2c1ncn2CCN1CCOCC1,4.4,-1.9,-6.2,4512,-3.4,-1.1,-1.8
CCOC(=O)N1CCN(C(=O)c2ccc3ccccc3c2)CC1,3.6,12.3,-12.5,4276,8.2,8.7,1.8
O=C(Nc1ccc(Cl)cn1)c1ccc(-c2ccc(Cl)c(Cl)c2)o1,14.1,-1.7,-7.9,?,-9.9,-7.4,9.9
COc1ccccc1NC(=O)CSc1nnc(Cn2cnc3ccccc32)o1,2.1,2.2,-20.0,3410,1.8,7.6,3.4
O=C(CSc1ccc(-c2cccnc2)nn1)N1CCCCCC1,10.3,-4.9,-12.7,4178,4.7,10.1,4.8
O=C(Nc1nc2cc3c(cc2s1)OCO3)C1CC1,1.3,6.3,-54.6,4471,11.8,2.3,4.5
O=C(CC1SCCNC1=O)Nc1cc(Cl)cc(Cl)c1 (configuration not stated),-1.7,-6.6,-9.7,4908,4.4,·,·
O=C(NNC(=O)c1cc(Br)ccc1Cl)c1csc(N2CCOCC2)n1,-10.2,-15.6,-15.5,5594,4.7,5.7,7.9
COc1cc(/C=N/NC(=O)c2nnn(-c3nonc3N)c2-c2cccs2)ccc1O,·,-3.2,6.0,4744,·,·,·
CCOC(=O)/C(C#N)=C1/C(=O)N(Cc2ccccc2)c2ccccc21,6.2,·,-11.1,3299,-25.2,-7.8,-10.7
CSc1nsc(/C=C/Nc2ccc(C)c(C)c2)c1C#N,3.0,-1.5,-34.2,3322,4.5,-4.8,9.7
# (more compounds)
SMILES,RN4220 kill,BJeLR viability,PrP 5UTR inh,Bead autofluor,ugtP null kill,Mtb hypoxia rep,Mtb hypoxia rep growth
CCOC(=O)c1[nH]cnc1C(=O)NC1CCCCC1,6.1,1.8,-19.0,3805,-7.1,12.4,10.2
COc1ccccc1Cn1c(SCC#N)nc2cc(C(=O)N3CCC4(CC3)OCCO4)ccc2c1=O,3.7,1.1,-17.8,4231,4.8,12.5,4.3
O=C(Cc1nc(=O)c2ccccc2s1)Nc1ccccc1,0.6,1.0,-71.5,16611*,-5.7,3.9,9.0
CC1=C(C(=O)Nc2cc(C)ccn2)C(c2cnn(C)c2)C2=C(CC(c3ccccc3)CC2=O)N1 (configuration not stated),-0.6,10.3,-15.3,10704,0.0,5.0,6.1
COCCn1c(SCC(=O)NC2CCCCC2C)nc2ccccc2c1=O (configuration not stated),3.3,-9.8,-24.3,3525,-0.5,1.4,2.0
Cc1onc(-c2c(F)cccc2Cl)c1C(=O)Nc1cccc(S(=O)(=O)NC2=NCCC2)c1,-0.5,-7.4,-8.3,?,-2.9,-0.3,2.4
Cc1cccc(OCC(=O)OCC(=O)N2CCCc3ccccc32)c1C,5.7,·,·,?,4.0,6.0,5.3
Cc1ccnc(-n2c(C)cc(C=NNC(=O)COc3cccc4cccnc34)c2C)c1,3.5,·,·,·,5.7,15.6,4.0
COc1cc(/C=N/NC(=O)CN2CCCCC2)ccc1OCc1ccc(Br)cc1,·,0.8,-75.2,2231,·,·,·
CCCn1c(NC(=O)c2ccc(F)cc2)nc2ccccc21,·,-3.4,-27.6,4395,·,·,·
O=C(CP(=O)(c1ccccc1)c1ccccc1)Nc1cccc(CP(=O)(c2ccccc2)c2ccccc2)c1,0.1,-3.2,-5.6,4372,12.1,14.4,4.5
O=C1C2C3CCC(C3)C2C(=O)N1Cc1ccco1 (configuration not stated),3.2,-4.1,0.4,2381,9.4,4.1,6.1
COCCCN=Cc1c(C)[nH]n(-c2ccc(Br)c(C)c2)c1=O,3.6,12.3,-84.1,2203,4.6,8.4,6.2
Cn1c(=O)c2c(nc(NNC(=O)C(F)(F)F)n2C)n(C)c1=O,3.6,13.7,-30.0,5364,8.5,-2.2,8.0
Cc1csc(NC(=O)CCC(=O)N(CC(=O)NC2CCCCC2)c2ccccc2)n1,1.5,2.4,-15.6,3865,11.4,7.8,1.6
COc1ccc(CC2(CCc3ccncc3)C(=O)NC(=O)NC2=O)cc1OC,2.3,-2.0,-2.1,1946,3.2,-17.3,2.8

# One compound at a time, as listed above. Values in the order: RN4220 kill | BJeLR viability | PrP 5UTR inh | Bead autofluor | ugtP null kill | Mtb hypoxia rep | Mtb hypoxia rep growth
# Record of `Nc1nc(NCCO)nc(NCC2CCCO2)c1[N+](=O)[O-]` (configuration not stated) = 1.9 | -2.2 | 4.3 | 7115 | 3.1 | 9.9 | 5.2
# Record of `COc1ccccc1NC(=O)CSc1nnc(Cn2cnc3ccccc32)o1` = 2.1 | 2.2 | -20.0 | 3410 | 1.8 | 7.6 | 3.4
# Record of `O=C(NNC(=O)c1cc(Br)ccc1Cl)c1csc(N2CCOCC2)n1` = -10.2 | -15.6 | -15.5 | 5594 | 4.7 | 5.7 | 7.9
# Record of `O=S(=O)(Cc1ccccc1)N1CCCCC1` = 5.3 | -13.0 | -4.6 | 3305 | -3.1 | 7.9 | 4.4
# Record of `CCOC(=O)N1CCC(N(CCN(C)C)C(=S)Nc2cc(Cl)ccc2C)CC1` = 3.3 | 5.7 | -12.5 | 4904 | 2.1 | 10.5 | 7.8

# High-throughput results as filed in PubChem.
